Hsc70 ATP site = Hsc70 inhibitors, probe displacement, primary screen, biochemical, fluorescence polarization (AID 568). Heat shock cognate 71 kDa protein (Homo sapiens). Hsc70 fluorescence polarization, probe displacement; higher % means a stronger effect; strong numbers were not always called active. one-dose displacement, % at 20 µM; IC50 in µM for titrated hits. 83,000 tested, under 10 active;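 active means displacement above 50% without optical interference and an IC50 on retest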;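 further: ATPase domain with a fluorescein-tagged ATP probe; 0% = vehicle and 100% = excess ADP; read after one hour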
WNV protease inh = inhibitors of WNV NS2B-NS3 protease, primary screen, biochemical, fluorogenic substrate | Genome polyprotein (West Nile virus), P06935 | fluorogenic substrate Ex360/Em465; stronger effect = lower value | z-score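 (tested at a level between 10 and 100 µM)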 | 65,000 tested, 0.18% active;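 active means z-score at -3 or under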;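 further: score is relative to mean and spread of the compound wells of a plate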
Target sequence (P06935 1371-1501 limits assumed): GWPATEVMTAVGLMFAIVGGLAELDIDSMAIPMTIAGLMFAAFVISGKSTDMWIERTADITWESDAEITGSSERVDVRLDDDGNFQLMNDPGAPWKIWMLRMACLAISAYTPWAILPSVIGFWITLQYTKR
Target sequence (P06935 1502-1679 limits assumed): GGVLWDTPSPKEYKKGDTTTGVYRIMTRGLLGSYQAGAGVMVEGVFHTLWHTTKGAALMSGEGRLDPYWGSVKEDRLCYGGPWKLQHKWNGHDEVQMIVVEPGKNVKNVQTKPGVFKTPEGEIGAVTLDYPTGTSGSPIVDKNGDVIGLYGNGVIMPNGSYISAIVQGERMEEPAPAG
MT1-MMP reporter = inhibitors of MT1-MMP promoter transcription, cell-based, luciferase reporter, luminescence (AID 618) | MT1-MMP promoter luciferase reporter cells, luminescence | calls from a first round at 10 µM; hits with a dose series show EC50 in µM | 87,000 tested, 0.62% active;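 active means over half of the reporter light lost at 10 µM or EC50 under 50 µM; inactive means the rest and hits that failed the dose series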;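 further: actives suppress MT1-MMP promoter-driven transcription so potencies describe inhibitors; HT1080 fibrosarcoma cells; overnight exposure; toxic or luciferase-blocking compounds were not removed from the actives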
An asterisk follows results filed as active; i = inactive; · = no result given.

| structure | Hsc70 ATP site | WNV protease inh | MT1-MMP reporter |
| --- | --- | --- | --- |
| COc1ccc(N/C(=N\c2nc(C)cc(C)n2)NC(C)=O)cc1OC | 0.8% | 2.09 | i |
| CCOC(=O)CSc1nc2ccccc2c(=O)n1CC1CCC(C(=O)NCc2ccco2)CC1 (centres undefined) | 2.0% | 0.65 | i |
| Cc1cc(C)c(NC(=O)C2CCN(c3cnccn3)CC2)c(C)c1 | 10.1% | · | i |
| COc1ccc(C)cc1S(=O)(=O)NC1CCCCC1 | 3.5% | 0.54 | i |
| N#Cc1ccc(CSc2nnc(-c3cccs3)n2-c2ccccc2)cc1 | 4.7% | -0.09 | i |
| COc1ccccc1NC(=O)c1cnc2n(c1=O)CCS2 | 3.2% | -0.36 | i |
| CCn1c(SCC(=O)NCC2CCCO2)nnc1-c1c[nH]c2ccccc12 (centres undefined) | 3.2% | 1.42 | i |
| CC(C)CCOC(=O)C1[C@H]2C(=O)N(Cc3cccs3)C[C@]23C=C[C@H]1O3 (some centres undefined) | -1.7% | -0.00201 | i |

| structure | Hsc70 ATP site | WNV protease inh | MT1-MMP reporter |
| --- | --- | --- | --- |
| CC(=O)NC1CC2CCCC(C1)N2S(=O)(=O)c1ccccc1 (centres undefined) | -0.4% | 0.34 | i |
| O=C1CCCc2nc3nc4ccccc4n3cc21 | -0.7% | -0.5 | i |
| O=C(O)c1ccccc1C(=O)NCC(O)COCC1CC=CCC1 (centres undefined) | 0.2% | -0.47 | i |
| CCOc1ccc(NS(=O)(=O)c2ccc3c(c2)oc(=O)n3C)cc1 | 1.3% | -0.04 | i |
| COc1ccc(CC(=O)OCN2C(=O)c3ccccc3C2=O)cc1 | 1.2% | -0.16 | i |
| O=C(CCSc1nc(-c2ccco2)cc(C(F)(F)F)n1)NCc1cccs1 | -2.1% | · | i |
| O=c1oc(-c2ccco2)nc2sc3c(c12)CCCC3 | 0.1% | · | i |
| CC(C)c1cc(C(=O)O)on1 | -7.4% | 0.07 | i |

| structure | Hsc70 ATP site | WNV protease inh | MT1-MMP reporter |
| --- | --- | --- | --- |
| COc1cc2c(cc1OC)-c1cc(OCCN3CCOCC3)nc(=O)n1CC2 | -12.6% | 0.89 | i |
| CN(c1ccc(C(=O)NCc2ccccn2)cc1)S(C)(=O)=O | 0.2% | · | i |
| COC(=O)c1ccc(C(=O)OC)c(NC(=O)CCc2ccc(C)o2)c1 | -1.5% | -0.61 | i |
| Cc1cc(NS(=O)(=O)c2ccc(NC(=O)CCN3C(=O)c4ccccc4C3=O)cc2)no1 | 2.0% | 0.35 | i |
| CCCn1c(=N)n(CCOc2ccc(OC)cc2)c2ccccc21 | 1.9% | 0.45 | i |
| O=S(=O)(O)c1nc2ccccc2n1CCOc1ccccc1 | 7.0% | -0.51 | i |
| COc1ccc(N2C(N)=C(C#N)C(c3cccnc3)C3=C2CC(C)(C)CC3=O)cc1 (centres undefined) | 3.6% | -0.06 | i |
| O=C(CSc1nnc(-c2ccco2)n1-c1ccccc1)NCCc1ccccc1 | 1.5% | -0.36 | i |

| structure | Hsc70 ATP site | WNV protease inh | MT1-MMP reporter |
| --- | --- | --- | --- |
| CCN(CC)c1nc(N)c2c(N)nc3c(c2c1C#N)CC(c1ccccc1)O3 (centres undefined) | 2.4% | -0.24 | i |
| c1ccc(-c2cnc(SCCN3CCOCC3)n2CC2CCCO2)cc1 (centres undefined) | 3.2% | · | i |
| COc1cc(NS(=O)(=O)c2cccc3nsnc23)cc(OC)c1 | 0.6% | · | i |
| Cc1ccc2nc(-c3cccc(N)c3)[nH]c2c1 | -4.7% | · | 2.8µM* |
| Cc1cc(Cl)c(S(=O)(=O)N2CCN(c3cccc(C)c3C)CC2)cc1OCC(N)=O | 1.1% | · | i |
| COc1ccc(C(=O)/C=C/Nc2c(C)n(C)n(-c3ccccc3)c2=O)cc1OC | 7.0% | -0.25 | i |
| CCOCC(O)CS(=O)(=O)c1ccccn1 (centres undefined) | 7.0% | -0.57 | i |
| O=C(c1ccco1)N1CCn2c1nc1ccccc12 | -4.7% | 0.13 | i |

| structure | Hsc70 ATP site | WNV protease inh | MT1-MMP reporter |
| --- | --- | --- | --- |
| O=C(c1ccc(CN2CCOCC2)cc1)N1CCN(c2ccccc2)CC1 | -3.0% | · | i |
| Cc1cc(C)nc(NC(=O)NS(=O)(=O)N2CCCCCC2)n1 | -0.7% | 0.72 | i |
| CC(=O)Cc1nsc(NC(=O)c2csc3c2CCCC3)n1 | 0.9% | -0.4 | i |
| CCc1nnc(NC(=O)Cc2ccc(OC)cc2)s1 | -0.3% | · | i |
| COc1ccc(Br)cc1CNC(=O)C1CCCN(c2nc3ccccc3o2)C1 (centres undefined) | 1.5% | -0.71 | i |
| O=C(O)COc1ccccc1O | 6.6% | 0.48 | i |
| CCOc1ccc2oc(C(=O)OCC(=O)NC(=O)NC3CCCC3)c(C)c2c1 | -4.1% | -2.28 | i |
| COC(=O)c1ccc(COC(=O)c2[nH]c(C)c(C(C)=O)c2C)o1 | 4.8% | 0.84 | i |

| structure | Hsc70 ATP site | WNV protease inh | MT1-MMP reporter |
| --- | --- | --- | --- |
| CCOC(=O)c1c(NC(=O)c2c(Br)cnn2C)c(C#N)nn1-c1ccccc1 | -0.3% | · | i |
| CCCOc1cc(CC(=O)NCc2ccco2)ccc1OC | -3.7% | 0.85 | i |
| COc1ccccc1N(CCC#N)C(=O)CSc1nc(-c2ccccc2)cn1N | -4.5% | -1.07 | i |
| CCn1c(SCCC#N)nnc1-c1ccncc1 | 0.1% | -1.43 | i |
| COc1cccc(OCCCCN2CCCCC2)c1 | 1.7% | 2.57 | i |
| c1ccc(-c2nnc(-c3cccc(-c4nnc(-c5ccccc5)o4)c3)o2)cc1 | 3.6% | -0.23 | i |
| Cc1ccc(Cn2c(CN3CCOCC3)nc3c2c(=O)[nH]c(=O)n3C)cc1 | 5.0% | -0.99 | i |
| COc1ccc(-c2nc(CS(=O)CC(=O)NCC3CCCO3)c(C)o2)cc1 (centres undefined) | 2.0% | -0.75 | i |

| structure | Hsc70 ATP site | WNV protease inh | MT1-MMP reporter |
| --- | --- | --- | --- |
| O=C(Nc1cccc(F)c1)c1cc(S(=O)(=O)N2CCC(C(=O)O)CC2)ccc1F | 6.9% | -0.48 | i |
| NC(=O)CSc1nnc(-c2ccc(S(=O)(=O)N3CCCC3)cc2)o1 | 0.7% | · | i |
| Cc1ccc(S(=O)(=O)CCc2nnc(N)s2)cc1C | -1.6% | · | i |
| Cc1ccc(NC(C(N)=O)c2c(C)[nH]c(=O)[nH]c2=O)cc1 (centres undefined) | -8.4% | 0.4 | i |
| CCOC(=O)CN(C(=O)CCC(=O)Nc1cc(C)on1)C(C(=O)NC1CCCC1)c1cccnc1 (centres undefined) | 0.8% | · | i |
| COc1ccc(C2(CNC(C)=O)CCOCC2)cc1OC | -2.3% | 0.92 | i |
| Cc1cc(NC(=O)c2cccc(C(=O)Nc3cc(C)on3)n2)no1 | -9.7% | -0.75 | i |
| CC1CCN(C(=O)CC2C(=O)Nc3c2c(=O)n(C)c(=O)n3Cc2ccccc2)CC1 (centres undefined) | -0.2% | · | i |

| structure | Hsc70 ATP site | WNV protease inh | MT1-MMP reporter |
| --- | --- | --- | --- |
| CCCCCCOC(=O)C(C#N)c1nc2ccccc2nc1N1CCOCC1 (centres undefined) | 60.4% | -0.3 | i |
| COc1ccc(O)c(C(=O)c2cnc3onc(C(C)C)c3c2)c1 | -0.1% | -0.65 | i |
| COc1ccc(C(=O)n2nc(-c3ccco3)nc2SC)cc1OC | -8.7% | -0.03 | i |
| Cc1ccc(NC(=O)CS(=O)CC(=O)Nc2ccc(N3CCOCC3)cc2)cc1Cl (centres undefined) | 3.1% | 2.11 | i |
| CN(C)N=Nc1ccc(S(=O)(=O)N2CCSC2C(=O)O)cc1 (centres undefined) | 4.5% | · | i |
| COc1ccc(CCCNC(=O)CC#N)cc1OC | -9.4% | 0.66 | i |
| C=CCn1c(N)c(C(=O)N2CCOCC2)sc1=S | 5.4% | 0.34 | i |
| CN(CC(=O)Nc1ccc(Cl)cc1)S(=O)(=O)c1cccc2cccnc12 | 3.1% | 0.21 | i |

| structure | Hsc70 ATP site | WNV protease inh | MT1-MMP reporter |
| --- | --- | --- | --- |
| O=C(CSc1nc2c(c(=O)n1-c1ccc(Cl)cc1)SCC2)N1CCCC1 | 1.2% | 0.97 | i |
| COc1ccc(CCNC(=O)c2cc(-c3ccccc3OC)on2)cc1OC | -3.6% | 0.04 | i |
| COCCNC(=O)C(c1ccc(F)cc1)N(CCOC)C(=O)CCC(=O)Nc1nccs1 (centres undefined) | 1.3% | 0.78 | i |
| CCOc1ccc(NC(=O)NC2CCOC(C)(C)C2)cc1 (centres undefined) | -2.6% | 0.27 | i |
| C/C(=C\C(=O)O)CC(=O)O | -0.6% | -0.3 | i |
| COc1c(Br)cc(Br)cc1C(=O)O | -2.1% | -0.15 | i |
| COc1ccc(-c2ccc(C#N)c(SCC(=O)Nc3sc4c(c3C#N)CCC4)n2)cc1OC | -7.2% | · | i |
| COc1ccc(OC)c(NC(=O)Cn2c(=O)oc3ccccc32)c1 | -1.0% | -1.14 | i |

smiles | Hsc70 ATP site | WNV protease inh | MT1-MMP reporter
COC(=O)c1ccc(C2C(C(=O)Nc3ccc(C)cc3C)=C(C)Nc3ncnn32)cc1 (centres undefined) | 4.4% | -1.05 | i
COc1ccc2cc(C(c3nnnn3C3CCCC3)N3CCc4ccccc4C3)c(=O)[nH]c2c1 (centres undefined) | 0.2% | -0.56 | i
COc1ccccc1N1CCN(S(=O)(=O)c2c(C)ccc3nsnc23)CC1 | 2.9% | 0.58 | i
CC1CCN(Cc2c(C#N)c3ccccc3n2C)CC1 | 2.0% | 0.15 | i
COc1ccc(-n2ncc3c(N4CCN(c5cccc(C)c5C)CC4)ncnc32)cc1 | 5.6% | -0.48 | i
Nc1nc2n(n1)C(c1cccc(Br)c1)CC(c1ccccc1)N2 (centres undefined) | 1.1% | 1.67 | i
O=C(O)c1n[nH]c2c1CCCCC2 | 0.3% | 0.84 | i
CCOC(=O)N1CCC(N2C(=O)c3ccc(C(=O)O)cc3C2=O)CC1 | 2.6% | 1.38 | i
CSc1nc2sc3c(c2c2nnnn12)CC(C)(C)OC3 | 5.0% | -0.04 | i
Cc1cc(C)c(C#N)c(Nc2ccccc2Cl)n1 | 0.2% | -0.99 | i
Cc1c(NC(=O)CSc2nnnn2C)c(=O)n(-c2ccccc2)n1C | 3.2% | · | i
C=CCNc1nc(NCc2ccco2)nc(OCC)n1 | -3.2% | -0.29 | i
COc1ccc(N2CCN(Cc3cc(=O)oc4cc5c(cc34)CCCC5)CC2)cc1 | -27.6% | 0.28 | i
CCOC(=O)c1c(NC(=O)c2cccs2)sc2c1CC(C)(C)OC2 | 3.8% | -0.19 | i
COc1cccc(CNC(=O)c2cc3oc4ccccc4c3n2C)c1OC | -4.2% | 0.11 | i
O=C(OCn1nnc2ccccc2c1=O)c1cn(-c2ccccc2)nc1-c1cccnc1 | -9.1% | 0.23 | i
Cc1cccc2nc(Cn3c(=O)n(CCCC(=O)NCc4ccco4)c(=O)c4ccccc43)cc(=O)n12 | -18.2% | -0.99 | i
CCn1c(SCC(=O)c2ccc3ccccc3c2)nnc1-c1ccco1 | 0.8% | · | i
Cc1ccc2c(c1)N(CC(=O)NCc1cccs1)C(=O)C(C)O2 (centres undefined) | -3.1% | · | i
CCOC(=O)C1CCCN(C(=O)Cc2ccc(OC)c(OC)c2)C1 (centres undefined) | -0.5% | 0.08 | i
COc1ccc(-c2nc(CS(=O)(=O)CC(=O)NCCc3cc(OC)ccc3OC)c(C)o2)cc1 | -6.6% | 0.91 | i
CS(=O)(=O)c1ccc2nc(NC(=O)Oc3ccccc3)sc2c1 | -2.2% | -0.26 | i
c1ccc2c(-c3nc(C4CCCCC4)no3)cc(-c3ccncc3)nc2c1 | -2.2% | 1.4 | i
Cc1nc(N(C)C)c2sc(=S)n(C)c2n1 | 2.3% | -2.49 | i
CCc1c(C)nc2[nH]nc(-c3ccccc3C)n2c1=O | -5.7% | 1.26 | i

smiles | Hsc70 ATP site | WNV protease inh | MT1-MMP reporter
CCC12CC3CC(C1)CC(C(=O)O)(C3)C2 | 8.5% | -0.16 | i
CN(C)/C=C1\C(=O)c2ccc(N(C)C)nc2CC1c1ccccc1 (centres undefined) | -3.1% | 0.09 | i
Cc1onc(-c2ccccc2Cl)c1C(=O)Nc1cccc(-c2nc3ncccn3c2C)c1 | 2.6% | 2.91 | i
O=C1CCCN1C(=O)CCC(=O)N1CCCC1=O | -1.2% | -1.11 | i
CCOC(=O)c1c(C)[nH]c(C)c1C(=O)COC(=O)C1CCCN1S(=O)(=O)c1ccccc1F (centres undefined) | -0.9% | -0.66 | i
O=C1CS/C(=N\C(=O)N2c3ccccc3Sc3ccccc32)N1 | -13.0% | -0.14 | i
CCOC(=O)c1ccc(NC(=O)N2CCN(Cc3cccc(F)c3)CC2)cc1 | 9.9% | 0.35 | i
CS(=O)(=O)N(CC(=O)NCC1CCCO1)c1cc(Cl)cc(Cl)c1 (centres undefined) | -0.7% | -1.19 | i
CS(=O)(=O)c1ccc(N)cc1 | -2.0% | -1.13 | i
CCN(CC)C(=O)CSc1nnc2sc3ccccc3n12 | 0.8% | 3.37 | i
CCCCCCOC(=O)C(C#N)c1nc2ccccc2nc1N1CCN(C)CC1 (centres undefined) | -8.6% | -0.62 | i
COc1ccc(-c2nn3c(-c4ccco4)nnc3s2)cc1OC | 5.7% | 0.95 | i
O=C(NCc1cccs1)c1cnc2ccccn2c1=O | 3.1% | 0.17 | i

Source: PubChem BioAssay (several laboratories)
